YopH inh: blocks Yersinia enterocolitica YopH tyrosine phosphatase; hit rate 0.16% among 140,000; inhibition, %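 (about 10 µM by stock and volumes)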; fluorescence Ex485/Em525; AID 898;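 active = inhibition of 50% or more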;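 note: controls were vehicle for no effect and minimum signal wells for full effect; inactives centre near -20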
RecA splice inh: inhibitors of M. tuberculosis RecA intein splicing; P9WHJ3; cell-free RecA intein splicing, fluorescence; inhibition, %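 (about 9 µM by stock and volumes)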; hit rate 0.75% among 290,000; AID 2221; in the data active = inhibition above about 30%;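 note: 0% = vehicle wells and 100% = reference inhibitor control wells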
Target sequence (P9WHJ3 whole entry, looked up, canonical isoform): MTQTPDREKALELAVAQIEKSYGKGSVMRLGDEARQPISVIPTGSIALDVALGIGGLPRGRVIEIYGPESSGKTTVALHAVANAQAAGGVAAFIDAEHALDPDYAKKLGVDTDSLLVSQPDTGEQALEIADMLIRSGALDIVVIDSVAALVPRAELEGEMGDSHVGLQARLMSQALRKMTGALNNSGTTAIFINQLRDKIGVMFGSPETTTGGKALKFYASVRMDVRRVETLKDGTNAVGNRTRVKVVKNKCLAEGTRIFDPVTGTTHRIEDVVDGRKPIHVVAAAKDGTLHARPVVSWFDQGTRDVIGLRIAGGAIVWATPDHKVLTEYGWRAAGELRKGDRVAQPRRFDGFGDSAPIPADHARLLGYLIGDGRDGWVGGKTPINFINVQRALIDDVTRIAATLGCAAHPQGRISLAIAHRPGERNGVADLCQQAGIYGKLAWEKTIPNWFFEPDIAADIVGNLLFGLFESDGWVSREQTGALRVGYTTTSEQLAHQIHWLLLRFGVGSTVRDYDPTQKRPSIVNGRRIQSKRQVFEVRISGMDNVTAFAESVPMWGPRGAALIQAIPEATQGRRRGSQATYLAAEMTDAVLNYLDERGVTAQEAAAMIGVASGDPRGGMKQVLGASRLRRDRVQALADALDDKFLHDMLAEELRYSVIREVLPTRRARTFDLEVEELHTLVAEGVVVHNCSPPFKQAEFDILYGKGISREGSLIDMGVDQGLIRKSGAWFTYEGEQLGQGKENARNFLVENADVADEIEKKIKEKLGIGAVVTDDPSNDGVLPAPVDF
Mtb H37Rv: M. tuberculosis H37Rv growth inhibitors, H37Rv strain (AID 1626). M. tuberculosis H37Rv growth inhibition; higher % means a stronger effect. inhibition, % at 10 µM, or IC50 in µM where a hit was titrated. hit rate 0.95% among 220,000;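 active = confirmed in a dose series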;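 note: bacteria incubated seven days before Alamar blue readout; 0% = bacteria only wells and 100% = bacteria with antibiotic wells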
Arbovirus anti: arbovirus infection inhibition. arbovirus infection cell-based antiviral screen. inhibition, % at 10 µM. hit rate 0.37% among 200,000. AID 1251;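 active = inhibition from about 30%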;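 note: bluetongue infection of BSR cells; cell survival read as ATP light after 72 h; 0% = infected wells without compound and 100% = uninfected wells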
Mtb betalactam: beta-lactam sensitization of Mtb H37Rv; M. tuberculosis H37Rv growth with meropenem, percent inhibition; hits of this screen are not shown here; hit rate 0.27% among 330,000; inhibition, % at 25 µM;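 active = about 74% or more and at least 40 points above the plate without the antibiotic, then above 30% in a dose series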;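 note: growth measured after seven days incubation then overnight dye step; 0% = bacteria only wells and 100% = bacteria with antibiotic; twin plates without the antibiotic show which effects depend on it; some results filed as inactive read as strong as hits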
Arbovirus anti repeat: second read-out of Arbovirus anti, no call of its own (marks repeat the call); inhibition, %; measured here: 10K subset replicate screen; many hits read low in the repeat;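 first of two repeat runs on a subset; 0% = infected and 100% = uninfected wells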
An asterisk follows results filed as active; · = no result given.

SMILES | YopH inh | RecA splice inh | Mtb H37Rv | Arbovirus anti | Mtb betalactam | others
S=C1NC2=C(CCC/C2=C\c2ccccc2)C(c2ccccc2)N1 (configuration not stated) | -15 | 13 | 2% | -4 | 5
Cc1ccc(C)c(C(C)NC(=O)CC#N)c1 (configuration not stated) | · | 0.0 | 6% | 6 | 1
CCCCN(C)CCNC(=O)CN1C(=O)CSc2ccc(S(=O)(=O)N3CCCC3)cc21 | · | 2.2 | · | · | -5
Cn1c(CSc2ncccn2)nnc1SCC(=O)N1CCCCCC1 | · | 11 | 1% | -1 | -4
O=C(COC(=O)c1ccc(Cl)nc1)c1ccc2c(c1)OCCO2 | · | 0.5 | 61% | 3 | 57
CC(=O)N1CCc2cc(N=NC3=C(O)CCCC3=O)ccc21 | · | 1.3 | -8% | -5 | -4
O=C(Cn1ccc([N+](=O)[O-])n1)NCc1ccccc1 | · | -2.2 | · | · | 5
COc1cc(C2CC(=O)Oc3c(C(CCN4CCN(c5ccccc5)CC4)c4ccc(N(C)C)cc4)c(OC)cc(OC)c32)cc(OC)c1OC (configuration not stated) | · | 5.7 | 4% | · | 13
Cc1cc(=O)n(CC(C)O)c(O)c1C#N (configuration not stated) | -18 | -1.8 | -4% | -1 | -8
CC(NC(=S)Nc1ccc(OC(F)F)cc1)c1ccc(F)cc1 (configuration not stated) | · | 9.4 | -2% | 10 | -2
Clc1ccc(Cn2cc(/C=N/n3cnnc3)c3ccccc32)cc1 | -41 | 9.7 | 21% | -5 | · | Arbovirus anti repeat=-3
Cc1ccc(/C=C/C(=O)Nc2cc(S(=O)(=O)N3CCCCCC3)ccc2OCC(F)(F)F)o1 | 7 | -2.2 | -2% | -1 | -1
CN(CC(=O)Nc1ccccc1F)S(=O)(=O)c1ccc2c(c1)n(C)c(=O)c(=O)n2C | · | 0.0 | -1% | · | -6
CC1=CC(C)(C)N2C(=O)C3(SCC(=O)N3c3ccc(F)cc3)c3cc(C)cc1c32 (configuration not stated) | -11 | 7.7 | 0% | 6 | -8
O=C(NCc1ccccc1)c1ccc(Br)cc1Br | -20 | 1.1 | 4% | -4 | 13
COc1ccc(C(=O)c2coc3c2C(=O)C(=O)c2ccccc2-3)cc1 | · | · | 15% | · | 61
CC(=O)Nc1ccc(NC(=O)CSc2nccn2Cc2ccco2)cc1 | · | 0.0 | · | · | -14
CCCOc1ccc(C(=O)NCCC(=O)NCCCC(=O)O)cc1 | · | -0.8 | -4% | · | -7
COCc1nc(-c2ccc(-c3ccccc3)nc2OC)no1 | -2 | 1.2 | 0% | -11 | 1
CCOC(=O)/C(C#N)=C/c1c(Oc2cccc(C)c2)nc2c(C)cccn2c1=O | -15 | 0.5 | -4% | 11 | -3
COc1ccc(CN(C)S(=O)(=O)c2nnc(NC(=O)c3cccc(F)c3)s2)cc1 | · | 0.6 | · | · | -2
COc1ccccc1/C=N/NC(=O)c1csc(C)c1C | -7 | 3.0 | 2% | 2 | -3
c1ccc(C2=Nn3c(nnc3-c3ccncc3)SC2)cc1 | 6 | 0.4 | · | 14 | -2
O=C(CCn1nnc2ccccc2c1=O)N[C@@H](Cc1ccccc1)C(=O)O | -23 | 2.6 | -10% | 11 | -4
Cc1cc(C)cc(C(=O)NC(CC(N)=O)c2ccc(NC3CCCCC3)c([N+](=O)[O-])c2)c1 (configuration not stated) | · | 0.3 | -6% | · | 5
CC1CN(C(=O)Nc2ccccc2)c2ccccc2-[n+]2ccsc21 (configuration not stated) | -37 | 2.9 | 12% | -2 | -3
COc1cccc(-c2nc(CS(=O)(=O)CC(=O)NCCCN3CCc4ccccc4C3)c(C)o2)c1 | -35 | · | 0% | 11 | -24
Cc1cc(C)c2c(NC(=S)NC(=O)c3ccccc3)nn(C)c2n1 | · | 0.8 | -4% | -3 | 6
COc1ccc(N2C(=O)CC(N3CCCC4CCCCC43)C2=O)cc1 (configuration not stated) | -32 | -2.4 | -5% | 6 | -1 | Arbovirus anti repeat=0
O=C(Nc1ncccc1Cl)c1ccc2c(c1)OCCO2 | · | -0.5 | -4% | 4 | -3
COc1ccc(C2/C(=C(/O)c3ccc(C)cc3)C(=O)C(=O)N2CC2CCCO2)cc1OC (configuration not stated) | · | 0.4 | -3% | 0 | -2
Cc1ccc2c(c1)NC(=O)C(CC(=O)NCCCN1CCCC1=O)O2 (configuration not stated) | -25 | -1.2 | -11% | 0 | -5
COc1ccc(/C=C/C(=O)c2ccc[nH]2)c(OC)c1OC | 4 | 2.6 | -7% | -2 | 2
C=CCn1c(C)cc(C(=O)COC(=O)C2CC(=O)N(Cc3ccccc3)C2)c1C (configuration not stated) | -16 | · | 9% | -5 | 1
CCCCn1c(N)c(N(Cc2ccccc2OC)C(=O)C(C)Oc2ccc(F)cc2)c(=O)[nH]c1=O (configuration not stated) | · | -0.3 | · | · | -10
Cc1n[nH]c(=O)n1-c1ccc(C(C)C)cc1 | · | 1.2 | -3% | 7 | -5
CCOc1ccc(-n2c([S-])c(C(=O)Nc3ccc(S(=O)(=O)N4CCOCC4)cc3)[n+]3cc(C(N)=O)ccc23)cc1 | · | 0.0 | -11% | · | -7
CC(C)CCN1C(=O)c2ccc(C(=O)Nc3cccc(S(N)(=O)=O)c3)cc2C1=O | 15 | 1.8 | 5% | 4 | -2
CCC1Sc2ccccc2N(CC(=O)NCCC2=CCCCC2)C1=O (configuration not stated) | -11 | 1.6 | -6% | -6 | -3
CC1CCc2onc(C(=O)O)c2C1 (configuration not stated) | · | 0.2 | 1% | 6 | -1
NC(=S)N/N=C/c1ccc(-c2ccc(Cl)c(Cl)c2)o1 | -12 | 1.9 | 55% | -21 | 93
C/C(=N\Nc1ccccc1)c1cc2ccccc2oc1=O | · | -0.7 | 3% | -17 | 97
COc1ccc(CC(=O)NCCc2ccc(S(N)(=O)=O)cc2)cc1 | -15 | 0.1 | · | -2 | 1
O=C(CC(C(=O)N1CCc2ccccc21)n1ccnc1)NCC1CCCO1 (configuration not stated) | -21 | -4.7 | -6% | 5 | -3
CCn1c(SCC(=O)N2CCN(c3ccccc3)CC2)nc2c([nH]c3ccccc32)c1=O | · | 1.2 | · | · | -9
COc1cccc(NC(=O)CCSc2nnc3scc(-c4ccccc4)n23)c1 | -3 | 2.1 | 11% | -5 | 0
COc1ccc(NC(=O)c2ccc(NS(=O)(=O)c3c(C)noc3C)cc2)cc1OC | -39 | 0.3 | -4% | 7 | -10
CCOC(=O)c1c(C)n(C)c2c1cc(OC(C)=O)c1ccccc12 | · | -2.5 | · | · | 7

Of the compounds above, three have a cyano group.
SMILES | YopH inh | RecA splice inh | Mtb H37Rv | Arbovirus anti | Mtb betalactam | others
Cc1ccc(C)c(C(C)NC(=O)CC#N)c1 (configuration not stated) | · | 0.0 | 6% | 6 | 1
Cc1cc(=O)n(CC(C)O)c(O)c1C#N (configuration not stated) | -18 | -1.8 | -4% | -1 | -8
CCOC(=O)/C(C#N)=C/c1c(Oc2cccc(C)c2)nc2c(C)cccn2c1=O | -15 | 0.5 | -4% | 11 | -3

(more compounds)
SMILES | YopH inh | RecA splice inh | Mtb H37Rv | Arbovirus anti | Mtb betalactam | others
CCOc1ccc(Nc2oc(-c3ccco3)nc2C#N)cc1 | -25 | 8.7 | 15% | -15 | 70
COc1cc(C(=O)NCCc2cc3c(OC)ccc(OC)c3[nH]c2=O)cc(OC)c1OC | · | -0.3 | -5% | 0 | -3
COC(=O)c1ccc2c(=O)n(CCN3CCOCC3)c(SCC(=O)C(C)(C)C)nc2c1 | 5 | 0.8 | -1% | 0 | 2
COc1ccc(C(C)=O)cc1COC(=O)CNC(=O)c1ccc(F)cc1 | -17 | -0.4 | -5% | 1 | -6
CC/C(=N\N1CCN(C)CC1)c1c(O)[nH]c(=O)[nH]c1=O | -42 | -2.7 | -1% | -5 | -4
O=C(C(Cc1ccccc1)NS(=O)(=O)c1cccc2cccnc12)N1CCc2ccccc21 (configuration not stated) | -48 | · | -6% | 4 | -7
O=C(Nc1ccc2c(c1)OCO2)Oc1ccccc1 | -19 | 2.7 | 1% | 2 | 33
C=CCn1c(NC(=O)c2ccc(Br)o2)c(S(=O)(=O)c2ccccc2)c2nc3ccccc3nc21 | -2 | 46* | -6% | 16 | -3
CCc1cccc(NS(=O)(=O)c2cccc3cccnc23)c1 | · | -2.8 | · | · | 24
CC(=O)Nc1ccc(S(=O)(=O)NCc2nc(-c3ccccc3)no2)cc1 | · | -1.0 | · | · | -3
Cc1cccc(C(C)(C)C)c1OCCN1CCCC1 | -15 | 0.0 | 0% | 10 | -8
CC(=O)c1ccc(OC(C)C)c(CSC(=N)N)c1 | · | 0.9 | -9% | -5 | -1
COc1cc(CC(=O)Nc2ccc(S(=O)(=O)Nc3ncccn3)cc2)cc(OC)c1OC | -30 | 3.6 | -9% | 5 | 3
COCCNC(=O)C(c1cccs1)N(C(=O)Cn1nnc2ccccc21)c1cccc(C(C)=O)c1 (configuration not stated) | -7 | -1.5 | -8% | -11 | 3
O=C(CSc1nncs1)NC(=O)NCc1ccco1 | · | 1.1 | 7% | 26 | 1
O=C(COC(=O)CCC(=O)c1cccs1)Nc1cccc(S(=O)(=O)N2CCOCC2)c1 | -11 | -1.0 | 4% | 0 | -2
CCOc1ccc(C2=CSC3=NCCN23)cc1 | · | 1.0 | · | · | 66
COc1ccc(C(=O)NNS(=O)(=O)c2ccc(OC)cc2)cc1 | · | 6.1 | · | · | 11
NC(=O)Nc1ccc(C(=O)OCC(=O)Nc2cccc(S(=O)(=O)NC3=NCCCCC3)c2)cc1 | · | -23 | 5% | · | -7
CC(C)(C)n1nnnc1C(c1cccs1)N(Cc1cccnc1)Cc1ccco1 (configuration not stated) | -6 | 2.0 | -1% | -1 | 1
CS(=O)(=O)NNP(=O)(NNS(C)(=O)=O)NC(=O)c1ccc(Br)cc1 | · | · | 2% | · | -4
CCc1nc(SCC(=O)NCc2ccccc2)c2c(=O)n(C)c(=O)n(C)c2n1 | -48 | 0.6 | 7% | 4 | -6
Cc1cc(-c2ccc(C)c(S(=O)(=O)N3CCN(C(=O)c4ccco4)CC3)c2)on1 | · | 1.5 | · | · | 3
Cc1cc(N2CCN(S(=O)(=O)c3ccc(Cl)cc3)CC2)c2ccccc2n1 | -14 | -1.7 | 3% | 36* | 81 | Arbovirus anti repeat=-4.8*

Compounds above with a furan ring, fused or not:
SMILES | YopH inh | RecA splice inh | Mtb H37Rv | Arbovirus anti | Mtb betalactam | others
Cc1ccc(/C=C/C(=O)Nc2cc(S(=O)(=O)N3CCCCCC3)ccc2OCC(F)(F)F)o1 | 7 | -2.2 | -2% | -1 | -1
COc1ccc(C(=O)c2coc3c2C(=O)C(=O)c2ccccc2-3)cc1 | · | · | 15% | · | 61
CC(=O)Nc1ccc(NC(=O)CSc2nccn2Cc2ccco2)cc1 | · | 0.0 | · | · | -14
NC(=S)N/N=C/c1ccc(-c2ccc(Cl)c(Cl)c2)o1 | -12 | 1.9 | 55% | -21 | 93
CCOc1ccc(Nc2oc(-c3ccco3)nc2C#N)cc1 | -25 | 8.7 | 15% | -15 | 70
C=CCn1c(NC(=O)c2ccc(Br)o2)c(S(=O)(=O)c2ccccc2)c2nc3ccccc3nc21 | -2 | 46* | -6% | 16 | -3
O=C(CSc1nncs1)NC(=O)NCc1ccco1 | · | 1.1 | 7% | 26 | 1
CC(C)(C)n1nnnc1C(c1cccs1)N(Cc1cccnc1)Cc1ccco1 (configuration not stated) | -6 | 2.0 | -1% | -1 | 1
Cc1cc(-c2ccc(C)c(S(=O)(=O)N3CCN(C(=O)c4ccco4)CC3)c2)on1 | · | 1.5 | · | · | 3

Compound activity as filed in PubChem BioAssay.

An excerpt, so the mix of outcomes need not match the whole.
